# PABP polyA inh – PABP-poly(A) binding inhibition | PABP-poly(A) RNA binding, fluorescence polarization | inhibition, % at 35 µM | actives 1% (n = 290,000) | AID 2014;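 active = 50% or more with normal probe brightness, or confirmed in later tests; inconclusive = above 50% with abnormal brightness, or retests that disagree; inactive = below 50% or failed in later tests; about a fifth of its hits are not listed in these tables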;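 also: calls also rest on retests at 20 µM and on dose response follow-up; controls were probe without protein and protein plus probe with vehicle; some compounds called inactive have numbers as strong as hits; many hits fall short of the cut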
# Target sequence (P11940 whole entry, looked up): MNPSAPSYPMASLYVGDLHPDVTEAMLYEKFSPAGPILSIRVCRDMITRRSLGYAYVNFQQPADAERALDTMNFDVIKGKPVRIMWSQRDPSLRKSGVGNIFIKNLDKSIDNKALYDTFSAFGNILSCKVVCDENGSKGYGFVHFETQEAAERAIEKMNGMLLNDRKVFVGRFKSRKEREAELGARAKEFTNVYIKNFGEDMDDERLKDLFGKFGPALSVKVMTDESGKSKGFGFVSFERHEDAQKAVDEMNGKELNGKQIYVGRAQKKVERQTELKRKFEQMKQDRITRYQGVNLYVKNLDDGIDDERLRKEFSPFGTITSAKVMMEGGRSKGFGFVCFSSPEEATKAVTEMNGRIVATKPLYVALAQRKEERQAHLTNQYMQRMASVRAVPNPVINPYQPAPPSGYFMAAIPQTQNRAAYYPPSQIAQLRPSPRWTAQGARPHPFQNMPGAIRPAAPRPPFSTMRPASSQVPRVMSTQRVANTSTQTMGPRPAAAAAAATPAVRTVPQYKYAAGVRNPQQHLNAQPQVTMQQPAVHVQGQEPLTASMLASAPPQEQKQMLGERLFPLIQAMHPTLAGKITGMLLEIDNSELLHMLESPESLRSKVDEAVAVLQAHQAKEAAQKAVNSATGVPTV
# Yeast UUG start – yeast start codon fidelity modulation. S. cerevisiae UUG-firefly luciferase reporter, luminescence/redox ratio. actives 0.13% (n = 350,000). activity score, % at 18.7 µM;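 active = replicate mean at a twofold rise or more, about +100% in these data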;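 also: firefly luciferase made from a UUG start codon reports start codon fidelity; reporter light over untreated wells divided by growth signal over untreated wells; some hits fall short of that in this replicate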
# Env fusion inh – blocks HIV Env-driven cell-cell fusion | actives 1.1% (n = 360,000) | inhibition, % at 12.3 µM | AID 651610 | HeLa-JRFL Env/CEM21 cell fusion, luciferase;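 active = mean replicate inhibition score of at least 50 and every replicate individually at or above 50; inconclusive = only one of the two criteria met; inactive = mean below 50 and not all replicates reaching 50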;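 also: 0% = plate neutral controls and 100% = maraviroc near 300 nM; one replicate is shown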
# Rce1 inh – blocks yeast Ras-converting enzyme | actives 0.27% (n = 290,000) | calls only | yeast membranes, quenched prenylated peptide cleavage fluorescence | AID 2563;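 active = fall in fluorescence gain of 50% or more versus controls, with final raw signal at or below 3038400; inconclusive = same 50% fall but final raw signal above 3038400; inactive = fall in fluorescence gain under 50%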;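 also: plate controls were neutral control wells for no effect and wells lacking membranes for full effect; tested at 10 µM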
# eIF4H FP inh – inhibitors of RNA binding by human eIF4H | eIF4H fluorescence polarization binding assay | inhibition, % at 35 µM | actives 0.94% (n = 290,000);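 active = 50% or more with normal probe brightness, or confirmed in later tests; inconclusive = above 50% with abnormal brightness, or retests that disagree; inactive = below 50% or failed in later tests; about a fifth of its hits are not listed in these tables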;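 also: calls also rest on retests at 20 µM and on dose response follow-up; 0% = protein and probe with vehicle and 100% = probe without protein; strong numbers were not always called active; many hits fall short of the cut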
# CSC inhib – blocks cancer stem cells | cancer stem cell-like cells viability, luminescence | inhibition, % at 7.5 µM | actives 1.1% (n = 300,000) | AID 2717;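 active = mean at 75% or more and at least half the replicates too; inconclusive = mean and replicates disagree; tested in HMLE shEcad cells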;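 also: 0% = median of negative and 100% = median of positive control wells; the first replicate is given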
# MT1-MMP act inh – inhibitors of human MT1-MMP activation. GFP/RFP ratio change, % at 20 µM. actives 0.061% (n = 360,000). HT1080 RFP-PRO-GFP cells, GFP/RFP ratio fluorescence, overnight; percent of plate control window, DMSO zero. AID 651647;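 active = GFP/RFP ratio change of at least 30% with cell ATP level not reduced by more than half and red fluorescence within 50% of control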; also: strong numbers were not always called active
#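 Read-out: GFP/RFP fluorescence ratio; Test system: RFP-PRO-GFP reporter HT1080 cells; Compound dosing: single-point 20 µM compound, 1% DMSO; Times: overnight compound exposure at 37 °C.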
# eIF4H FP inh retest – second read-out of eIF4H FP inh, no call of its own (marks repeat the call); inhibition, %; compound at 20 µM; confirmation average;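 mean of two retest wells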
# PABP polyA inh retest – recorded beside PABP polyA inh, whose call it bears; inhibition, %; compound at 20 µM; confirmation repeats;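 mean of two retest wells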
# MT1-MMP act inh RFP – further read-out of MT1-MMP act inh, marked with its call; RFP signal change, %; measured here: RFP expression control read;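 0 = vehicle wells; hits needed this value within 50% of zero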
# * marks the source's active call; other numbers are inactive results; i = inactive; ? = inconclusive; . = not tested or not shown; & = joins results of further samples. Only part of the results is shown (hit frequency here may not be typical).
SMILES,PABP polyA inh,Yeast UUG start,Env fusion inh,Rce1 inh,eIF4H FP inh,CSC inhib,MT1-MMP act inh,MT1-MMP act inh RFP,others
CN(C)c1nc(N)c([N+](=O)[O-])c(N2CCCCCC2)n1,12,-6,-2,i,-6,-13,-6,-3,
CC1CCCCC12NC(=O)N(CC(=O)OCc1ccccc1F)C2=O (centres undefined),.,0,-15,.,.,.,0,-1,
CC(C)NC(=O)Nc1ccc2c(c1)C(=O)N([C@H](C)CO)C[C@H](C)[C@@H](CN(C)Cc1ccc3c(c1)OCO3)OCCCC[C@@H](C)O2,.,-28&-10,-20,.,.,.,5,9,
CCN1CCN(C(c2cc3cccc(C)c3[nH]c2=O)c2nnnn2Cc2ccccc2)CC1 (centres undefined),9,-3,-51,i,-8,-12,-6,1,
COCCCN1CN(Cc2ccccc2)CNC1=S,58,.,19,i,0.6*,-8,3,5,eIF4H FP inh retest=101*;PABP polyA inh retest=45
Cc1cnc(C)c(N2CCN(C(=O)C3CCC(=O)N(CCc4cccc(F)c4)C3)CC2)n1 (centres undefined),4,7,4,i,-5,5,-3,-2,
COC(=O)c1ccc(NC(=O)CCN2C(=O)NC(C)(C)C2=O)cc1,.,-12,.,.,.,-3,1,3,
CCNc1nc(NCC)n2c(SCC(=O)NC34CC5CC(CC(C5)C3)C4)nnc2n1,-10,-9,.,i,-11,0,-1,-1,
Cc1ccccc1C(=O)NC1CCN(Cc2nnnn2C2CCCC2)CC1,9,-6,-22,i,1,8,0,-1,
c1ccc(C2NCCNC2c2ccccc2)cc1 (centres undefined),.,-11,5,.,.,.,-3,1,
CSc1nsc(SCC(=O)Nc2ccc(Cl)c(C(=O)O)c2)n1,11,-13,0,i,-6,-13,1,3,
Cc1sc(-c2ccncc2)nc1OC(=O)c1ccc(Cl)cc1,-1,-13,.,i,33,-1,-18,-1,
O=C(O)/C=C/c1cccc(NC(=O)c2ccccc2)c1,-1,1,-3,i,-10,2,-12,-1,
Cc1noc(C)c1CSCC(=O)N(C)CC(=O)Nc1ccc(Cl)c(C(F)(F)F)c1,.,-5,?,i,.,-13,1,-6,
COc1ccc(OC)c(S(=O)(=O)Nc2ccc(-c3ccc4nnc(C)n4n3)cc2)c1,.,.,-61,i,.,29,3,2,
CCCCOc1ccc(/C=C/C(=O)NC2=Nc3ccccc3NC(C)=C2C(=O)OCC)cc1OC,2,.,10,i,-12,6,-7,-6,
Cc1cc(C(=O)Nc2ccc(Cl)cc2)c(C)n1-c1ccccc1,-1,-81,-160,i,-7,46,1,-5,
Cc1ccc(Cn2ncc3c(N4CCN(Cc5ccc(Cl)cc5)CC4)ncnc32)cc1,4,-17,96*,i,-7,19,9,-21,
Cc1cc(OCC(=O)OCC(=O)N(C)C2CCS(=O)(=O)C2)ccc1Cl (centres undefined),.,-5,9,.,.,.,-3,0,
Nc1nc(N)c(N=Nc2ccc(Cl)cc2)c(=O)[nH]1,30,-6,-5,.,5,-7,-1,-5,
O=C(Nc1ccc(Br)cc1F)c1sccc1-n1cccc1,7,24,.,i,2,.,4,-2,
COc1ccc(C2CC(c3cccc(Cl)c3)=NN2c2ccc(S(N)(=O)=O)cc2)cc1 (centres undefined),.,-14,4,.,.,.,-1,5,
Nc1nnnn1/N=C/c1cccc(O)c1,-12,-10,.,i,1,-21,3,2,
CNC(=S)NC12CC3CC(CC(C3)C1)C2,6,.,7,i,1,.,3,6,
O=C(CSc1nc(C2CC2)nc2ccccc12)Nc1ccc2c(c1)OCCO2,4,-21,11,i,-1,34,-3,-9,
O=C(c1ccccc1)N(Cc1nc2ccccc2c(=O)[nH]1)C1CCCC1,4,.,4,i,1,17,3,-3,
COc1ccc(/C=C2\SC(=O)N(CCNC(=O)Cn3cnnn3)C2=O)cc1,1,.,.,i,-6,-5,-1,-2,
O=C(O)c1cccc(-c2nnn(Cc3ccccc3Cl)n2)c1,-5,-63,25,i,12,10,0,-1,
Cc1ccc(C)c(NC(=O)CN(C)C(=O)c2ccc3[nH]c4c(c3c2)CC(C)CC4)c1 (centres undefined),.,.,6,.,.,26,-12,-7,
Cc1c(Cl)cccc1NC(=O)CNC(=O)C1CC(=O)N(C2CCCC2)C1 (centres undefined),.,-11,.,.,.,1,-2,0,
COc1ccc(C)cc1-n1nnnc1SC(C)C(=O)NC1CCCC1 (centres undefined),.,-10,.,.,.,-9,1,0,
N#Cc1cc2c(nc1SCc1ccncc1)CCC2,14,-18,.,i,7,-12,-7,-6,
Nc1nc2n(n1)C(c1ccco1)CC(c1ccc(F)cc1)N2 (centres undefined),2,-22,15,i,0,-26,-2,3,
O=S(=O)(/N=S1/CC=CCN1S(=O)(=O)c1ccccc1)c1ccccc1 (centres undefined),0,-25,.,i,-10,7,5,2,
COc1cc(C2C3C(=O)N(Cc4ccccc4)C(=O)C3ON2c2ccccc2)cc(OC)c1O (centres undefined),5,11,.,i,3,-15,2,-2,
Cc1ccc(Nc2nnc(SCC(=O)Nc3ccc(S(=O)(=O)N4CCOCC4)cc3)s2)cc1,12,-14,-1,i,-1,-10,8,-2,
CCc1ccccc1N1C(=O)c2cccc3c(N4CCOCC4)c([N+](=O)[O-])cc(c23)C1=O,8,.,.,i,12,.,0,-10,
COc1ccccc1-n1c(-c2ccco2)n[nH]c1=S,6,-16,-32,i,-8,-3,3,2,
O=C(NCCc1ccccn1)c1cccc(S(=O)(=O)N2CCc3ccccc32)c1,4,-11,7,i,-4,-9,0,-6,
Cc1cccnc1NC(=O)Cn1nc(C)c([N+](=O)[O-])c1C,-5,-13,.,i,-1,-6,5,7,
O=C(NC(=S)Nc1ccc(Br)cc1)C1CCCCC1,4,8,-5,i,-1,2,6,3,
Cc1cc(C(=O)CSc2nnc(-c3ccc(Cl)cc3)n2C)c(C)n1CC1CCCO1 (centres undefined),-6,-11,7,i,-6,14,4,-1,
CSc1nc(-c2ccccc2)nc(NC(=O)C(C)C)c1C(C)=O,-7,.,-12,.,17,-13,-4,-3,
CCc1cc2cc(C(=O)N3CCN(c4ccccc4)CC3)sc2s1,-10,-11,.,i,-8,-6,-7,-5,
CCc1ccc(S(=O)(=O)NCc2csc(C)n2)s1,-5,-13,.,i,24,13,-4,-3,
COC(=O)c1ccc(/C=N/NC(=O)C(=O)NCc2ccccc2)cc1,-3,.,5,.,2,-9,2,2,
COCCN(CC(=O)Nc1ccccc1C(F)(F)F)C(=O)/C=C/c1cc(Cl)c2c(c1)OCCO2,.,-10,6,.,.,.,4,-3,
CCOc1ccc(-n2c(SCC(=O)O)nc3sc4c(c3c2=O)CCCC4)cc1,-3,-12,1,i,-6,3,2,-3,
CC(C)N(C(=O)[C@H]1C[C@H](CC(=O)NCc2cccc(C(F)(F)F)c2)C(=O)N2CCc3c([nH]c4cc(-c5ccco5)ccc34)[C@]12C)C(C)C,.,-1,23,.,.,.,-4,-9,
O=C(Nc1cccc(OCC(=O)N2CCOCC2)c1)C1CCCCC1,4,.,8,i,6,2,4,5,
CCc1cc(=O)oc2c(CN3CCN(C)CC3)c(O)c(Cl)cc12,6,-18,-7,i,10,-9,-2,3,
Cc1ccc(/C=N\NC(=O)Cn2nnc3ccccc32)o1,20,6,-63,i,11,-20,1,2,
COc1ccc(-c2cn[nH]c2-c2ccc(OCc3ccccc3)cc2O)cc1,-9,.,45,i,2,102*,-2,-6,
CCOc1ccc(-c2c(C(=O)N/N=C/c3ccco3)nnn2-c2nonc2N)cc1,.,-30,-9,i,.,8,-2,2,
CCCN1CCC(NC(=S)Nc2ccc(C(=O)OCC)cc2)CC1,4,.,.,i,-5,-9,9,8,
CN(c1cccc(Cl)c1)S(=O)(=O)c1cccc(C(=O)Nc2ccc3c(c2)CCC3)c1,-10,-2,27,i,4,6,-14,-20,
O=C(NCCc1ccc(Cl)cc1)C1CC(=O)N(CCc2ccccc2)C1 (centres undefined),.,6,9,i,.,-3,-4,-2,
CC(C)C(=O)Nc1ccc(NC(=O)c2ccco2)cn1,34,-18,-73,i,0,-7,-1,1,
CC1CCCC(NC(=O)COC(=O)c2ccc([N+](=O)[O-])s2)C1C (centres undefined),.,1,.,.,.,-5,0,3,
COC(=O)[C@@H]1CC[C@@](C)(c2ccc(OC)cc2)C1(C)C,.,-12,.,i,.,-8,1,-1,

# Structures shown so far that have bromine, in the order listed:
SMILES,PABP polyA inh,Yeast UUG start,Env fusion inh,Rce1 inh,eIF4H FP inh,CSC inhib,MT1-MMP act inh,MT1-MMP act inh RFP,others
O=C(Nc1ccc(Br)cc1F)c1sccc1-n1cccc1,7,24,.,i,2,.,4,-2,
O=C(NC(=S)Nc1ccc(Br)cc1)C1CCCCC1,4,8,-5,i,-1,2,6,3,

# (more compounds)
SMILES,PABP polyA inh,Yeast UUG start,Env fusion inh,Rce1 inh,eIF4H FP inh,CSC inhib,MT1-MMP act inh,MT1-MMP act inh RFP,others
CC(=O)Nc1ccc2nc(NC(=O)c3cccnc3)sc2c1,2,.,-12,i,-15,-2,-3,-1,
Cc1ccc(C(=O)N2CCN(c3ccccc3)CC2)cc1S(=O)(=O)N1CCCC1,5,-1,.,i,-11,8,7,-10,
CC(C)N1CCC(N2CCN(C3CCCCC3)CC2CCO)CC1 (centres undefined),5,.,20,i,1,-10,-5,0,
COc1cc(C(=O)Nc2ccc(S(=O)(=O)Nc3cnc4ccccc4n3)cc2)cc(OC)c1OC,13,-6,-3,i,-4,-5,22,-10,
Nc1nnc(SC2CC(=O)N(c3ccccc3)C2=O)s1 (centres undefined),-8,-20,58*,i,2,-14,0,2,
CCOC(=O)C1CCCN(C(=O)C(=O)c2cn(CC(=O)N3CCOCC3)c3ccccc23)C1 (centres undefined),-1,5,9,i,-6,-1,-2,0,
O=C(COC(=O)c1ccccc1O)Nc1cccc(S(=O)(=O)NC2=NCCCCC2)c1,-9,-8,16,i,-7,-18,1,0,
O=C(NCc1ccccc1CN1CCCC1)C1CCN(C(=O)c2ccc(Cl)cc2)CC1,.,-4,-2,.,.,.,6,9,
CCOc1ccccc1OCC(=O)OCC(=O)NNC(=O)c1ccc([N+](=O)[O-])cc1,-1,-9,-14,i,-13,-4,-1,5,
S=C(NN=C(C1CC1)C1CC1)Nc1ccccc1,-5,-27,-23,i,10,-6,-1,1,
Cc1c(Br)c(C(F)(F)F)nn1CC(=O)NCc1ccco1,13,.,-5,i,9,-11,1,4,
CC(C)[C@H](NC(=O)c1ccccc1)C(=O)OCC(=O)Nc1ccc(S(=O)(=O)N2CCOCC2)cc1,.,.,-65,.,.,-16,2,4,
CC(C)C[C@H](NC(=O)c1nc[nH]c1C(=O)NCc1ccc(CNC(=O)OC(C)(C)C)cc1)C(=O)OC(C)(C)C,-6,-9,0,i,14,22,-2,-13,
COc1ccc(C(CNC(=O)CCNS(=O)(=O)c2ccc(Br)cc2)N2CCCC2)cc1 (centres undefined),.,2,6,.,.,.,1,3,
C/C(Cc1nnn(-c2cc(C)on2)n1)=N\O,-8,-19,0,i,-2,-13,3,0,
COC(=O)C1=C(C(=O)OC)C(c2cc(Cl)ccc2O)c2sc(=O)[nH]c2S1 (centres undefined),2,-17,.,i,7,-6,7,17,
C=C(C)c1cccc(C(C)(C)NC(=O)Nc2cccnc2)c1,0,-11,0,i,-11,-5,7,-2,
COc1ccc(/C=N/NC(=O)CN(C2=NS(=O)(=O)c3ccccc32)c2ccccc2)cc1,-8,-11,-10,i,-13,-5,0,-2,

# Screening results (PubChem BioAssay)
